FGF22 binding – FGF22 (human) thermal shift binding; Q9HCT0; recombinant FGF22 thermal shift, SYPRO orange fluorescence; percent of sucrose octasulfate shift, DMSO zero; calls only at 9.99 µM; 340,000 tested, 1.5% active;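 active = melting point raised past a set limit in the mean and every replicate; inconclusive = no clear call; three in four hits are not shown here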
Target sequence (Q9HCT0 whole entry, looked up): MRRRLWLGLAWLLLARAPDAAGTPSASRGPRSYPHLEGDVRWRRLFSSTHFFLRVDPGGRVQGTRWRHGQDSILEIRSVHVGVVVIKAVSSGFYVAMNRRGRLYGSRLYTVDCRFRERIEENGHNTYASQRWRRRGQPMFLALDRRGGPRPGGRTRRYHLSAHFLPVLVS
AF4-AF9 inh – blocks AF4 peptide binding to human AF9. AID 651704. 350,000 tested, 0.47% active. P42568. inhibition, % at 10 µM. AlphaScreen, biotin-AF4 peptide binding to FLAG-AF9;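 active = every replicate reaching a set inhibition limit, whatever the replicate mean, cut at about 25% in these data; inconclusive = mean inhibition reaches that limit but some replicates miss it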;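 note: 0% = plate neutral control median and 100% = total signal loss; the record names both 10 and 1 µM as test concentration; the first replicate is given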
Ecoli rRNA inh – inhibits bacterial ribosomal RNA function over humanized ribosomes. 350,000 tested, 1.6% active. AID 720706. GFP signal change (wild-type ribosome), % (test concentration not listed). E. coli WT GFP vs humanized-ribosome RFP mutants, fluorescence, 24 h; hits give low values; DMSO median 0, no signal -100;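 active = significant combined selectivity score with lowered wild-type GFP, culture density cut under 30%, mutant RFP and density less affected; inactive = any of these conditions unmet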; note: one replicate is shown; some compounds called inactive have numbers as strong as hits
T cruzi repl – blocks replication of Trypanosoma cruzi | T. cruzi beta-gal in NIH3T3, luminescence, 90 h | inhibition, % (test concentration not listed) | 300,000 tested, 1.4% active;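 active = mean inhibition across valid replicates above about 55%, limit read from the data; inconclusive = mean below that limit but half or more replicates reach it; inactive = mean below it, under half of replicates reach it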;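 note: signal also drops with host cell toxicity which is not excluded here; 0% = plate median of DMSO wells and 100% = zero luminescence signal; higher percent means less beta-gal luminescence so fewer parasites; stock transfer was 50 nL into about 50 µL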
Bfl-1 A1 inh – inhibitors of the anti-apoptotic protein A1, read as caspase activation. 330,000 tested, 0.066% active. caspase activation, % (concentration not given with the values). MEF A1-2A-BIM cells, Caspase-Glo 3/7 luminescence, 3 h; percent of clofoctol response, vehicle zero;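 active = over half of replicate activation scores above 10%, or exactly half above 10 with the replicate mean above 10; inconclusive = replicate mean below 10 yet half the replicates above 10; inactive = over half of replicates below 10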;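 note: wells of about 30 µL received 50 nL stock; many hits fall short of the cut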
Beta apoptosis – blocks beta cell apoptosis | INS-1E cytokine-induced death, ATP luminescence, 48 h; percent of positive-control rescue, neutral wells zero | 300,000 tested, 0.8% active | AID 435005 | protection from apoptosis, % (no concentration beside the values);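 active = all replicates at 75% or more, or half of them and the mean; inconclusive = half reach 75% but not the mean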;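 note: 0% = cytokine-treated negative control wells and 100% = positive control rescue; higher means more ATP so stronger rescue from cytokine killing; wells of about 40 µL received 100 nL stock; the first replicate is given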
UCH37 DUB inh – blocks the human deubiquitinase UCH37; 330,000 tested, 0.33% active; inhibition, % (no concentration beside the values); purified proteasome/UCH37, Ub-AMC cleavage fluorescence; Q9Y5K5;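 active = mean of two replicates above 20%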;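 note: 0% = compound-free wells with enzyme and 100% = wells lacking proteasome; stock transfer was 100 nL into about 20 µL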
Target sequence (Q9Y5K5 whole entry, looked up): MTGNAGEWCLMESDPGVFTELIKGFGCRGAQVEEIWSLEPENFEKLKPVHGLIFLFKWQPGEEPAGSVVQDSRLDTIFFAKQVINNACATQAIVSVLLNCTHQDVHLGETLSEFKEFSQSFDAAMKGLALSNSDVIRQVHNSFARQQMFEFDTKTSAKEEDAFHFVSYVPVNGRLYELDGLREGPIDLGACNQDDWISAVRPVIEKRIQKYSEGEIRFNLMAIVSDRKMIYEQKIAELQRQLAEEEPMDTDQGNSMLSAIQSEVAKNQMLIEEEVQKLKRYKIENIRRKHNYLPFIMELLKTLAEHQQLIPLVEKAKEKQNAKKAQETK
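assay system = human UCH37 enzyme supplied as purified proteasome complex | amount = proteasome at 0.15 nM in the dispensed enzyme solution | schedule = 30 min compound-proteasome preincubation then 25 min substrate reaction, room temperature | measured by = fluorescence, ex 355 nm, em 460 nm | benchmarks = no-proteasome wells (full inhibition) and compound-free wells (no inhibition)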
Ecoli growth – inhibitors of Escherichia coli growth; OD600, 23 h; hits give low values; OD600 absorbance (no concentration beside the values); 330,000 tested, 0.21% active; AID 1053175;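 active = OD600 absorbance below the run mean of sample wells minus 3.6 SD, in any replicate, cut at about 0.56 in these data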;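 note: stock transfer was 300 nL into about 60 µL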
Ecoli rRNA inh OD600 – further read-out of Ecoli rRNA inh, marked with its call; OD600 change, %; measured here: OD600 growth;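 optical density of the mix in the first replicate; 0 = DMSO median and -100 = no signal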
Ecoli rRNA inh RFP – second read-out of Ecoli rRNA inh, no call of its own (marks repeat the call); RFP signal change, %; measured here: RFP humanized mutant strains;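 first replicate; 0 = DMSO median and -100 = no signal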
Active calls of the source: *; i = inactive; ? = inconclusive; nt = no result given; & = joins results of further samples. Only part of the results is shown; the hit share may differ from the screen's.

molecule,FGF22 binding,AF4-AF9 inh,Ecoli rRNA inh,Ecoli rRNA inh OD600,Ecoli rRNA inh RFP,T cruzi repl,Bfl-1 A1 inh,Beta apoptosis,UCH37 DUB inh,Ecoli growth
CC(C)Oc1cccc(C(=O)C2CCCN(Cc3ccon3)C2)c1 (stereo unspecified),i,-0.4,-14,-10,1.0,-3,-0.9,2,-0.9,0.69
COc1ccc2c(c1)c(C(=O)CN1CCN(C)CC1)c(C)n2Cc1ccccc1,nt,nt,nt,nt,nt,nt,-0.7,-10,3.0,0.78
Cc1ccc(C(=O)n2cc(CCN3CCS(=O)(=O)CC3)c3ccccc32)cc1,nt,nt,nt,nt,nt,23,-0.2,0,1.8,0.75
Cc1ccc2c(c1)C1CN(C)CCC1N2C(=O)c1ccco1 (stereo unspecified),i,3.7,21,9,0.1,11,1.7,-10,2.2,0.68
O=C(NC(=S)N1C[C@H]2C[C@H](C1)c1cccc(=O)n1C2)c1ccc(Cl)cc1Cl,i,-5.1,nt,nt,nt,2,0.4,-1,-6.1,0.71
c1nc2nc3c(c(N4CCNCC4)n2n1)CCCC3,nt,nt,nt,nt,nt,-6,0.7,0,2.0,0.67
CN1CC(C(=O)c2ccc(F)cc2)C(c2c(F)cccc2Cl)C1 (stereo unspecified),i,2.8,3,5,1.4,18,1.0,-8,2.3,0.71
CNC(=O)OCc1n(C)cc[n+]1C,i,1.1,14,21,-1.8,-1,0.5,-2,0.8,0.67
COc1ccccc1N1CCN(CCc2ccccc2)CC1,i,1.1,0,6,-2.7,-18,1.3,-6,3.8,0.66
Cc1nc2ccccc2c(=O)n1-c1ccc(Cl)c(Cl)c1,i,2.0,1,-4,2.6,-11,0.3,nt,-2.0,0.72
CN(C)C(=O)Oc1cc(OC(=O)N(C)C)cc(C(O)CNC(C)(C)C)c1 (stereo unspecified),i,3.7&-3.4,nt,nt,nt,nt,-0.1&1.3,-6&-2,4.0&4.2,0.72&0.68
CCN1CCN(c2ccc([N+](=O)[O-])cc2C(=O)OC)CC1,i,-2.4,12,9,29,28,-0.3,3,13,0.62

More records follow:
molecule,FGF22 binding,AF4-AF9 inh,Ecoli rRNA inh,Ecoli rRNA inh OD600,Ecoli rRNA inh RFP,T cruzi repl,Bfl-1 A1 inh,Beta apoptosis,UCH37 DUB inh,Ecoli growth
Cc1cccnc1-n1c(-c2ccccc2)nc2ccccc2c1=O,nt,nt,nt,nt,nt,0,0.3,-17,3.1,0.68
CN1C(=O)N(C)C(=O)C2(Cc3cc(NC(=O)c4ccccc4Cl)ccc3N3CCCC32)C1=O (stereo unspecified),i,-0.3,5,7,-0.2,-1,-0.7,-4,-4.5,0.68
CN(C)C(=O)NC(O)C(Cl)(Cl)Cl (stereo unspecified),i,4.3,10,4,-0.8,8,-0.2,-5,1.3,0.6
CN1CCN(c2ccc([N+](=O)[O-])c(SCCO)c2)CC1,i,-3.7,9,-9,-2.9,5,0.4,-8,nt,nt
COC(=O)C1=C(c2ccc3ccccc3c2)C[C@@H]2CC[C@H]1N2C(=O)NCc1ccc(C(F)(F)F)cc1,i,1.4,15,3,0.4,nt,?,7,0.7,nt
COc1ccc(CCNCc2sccc2C)cc1OC,i,2.9,-6,1,-1.7,-6,-1.0,7,0.4,0.72
O=C(c1ccc(F)cc1)N1CCC2(CC1)OCCO2,i,-1.8,16,16,1.6,-1,-0.7,-3,1.8,0.7
Cc1[nH]c2ccccc2c1CCN,nt,nt,nt,nt,nt,-7,1.0,-7,-1.5,0.68
CN1C(=O)N(C)C(=O)C2(Cc3ccccc3N3CCCC32)C1=O (stereo unspecified),i,-1.7,14,-3,-0.3,-11,0.1,-7,-17,0.69
Cc1cc(N(CCCl)CCCl)ccc1C=Cc1ccncn1,i,-2.0,10,-2,18,nt,nt,nt,-18,0.69
Nc1nc(N)c2cnnn2n1,i,0.6,35,27,6.5,nt,nt,nt,0.5,0.65
Cc1cccc(-n2c(O)c(C=Nc3ccc(S(N)(=O)=O)cc3)c(=O)[nH]c2=O)c1,i,-0.3,26,13,1.1,-6,-0.2,-5,-0.7,0.66

Next part
molecule,FGF22 binding,AF4-AF9 inh,Ecoli rRNA inh,Ecoli rRNA inh OD600,Ecoli rRNA inh RFP,T cruzi repl,Bfl-1 A1 inh,Beta apoptosis,UCH37 DUB inh,Ecoli growth
CN(C(=O)Oc1ccc([N+](=O)[O-])cc1)c1ccccc1,nt,nt,nt,nt,nt,0,-0.4,15,0.2,0.69
Cc1cc(-c2cc(C)c(N)c(C)c2)cc(C)c1N,i,nt,-1,-6,1.1,nt,nt,nt,-0.9,0.68
COC(=O)C1=C(c2ccc3ccccc3c2)C[C@@H]2CC[C@H]1N2C(=O)NC1CC1,i,0.1,-4,1,3.9,nt,0.3,1,-1.7,nt
CC(=O)Nc1ccc(S(=O)(=O)NC(CC(=O)N2CCC3(CC2)OCCO3)C(C)C)cc1 (stereo unspecified),nt,nt,nt,nt,nt,-8,1.8,-7,3.4,0.77
COc1cc(CN=C(C)c2c(O)n(C3CCCCC3)c(=O)[nH]c2=O)cc(OC)c1,i,-10,-15,-11,-1.2,11,1.2,0,4.2,0.71
OCCNc1c2c(nc3ccccc13)CCCC2,nt,nt,nt,nt,nt,7,-0.3,6,8.9,0.72
CCCCOc1ccc(CN2CCN(CC)CC2)cc1,nt,nt,nt,nt,nt,12,1.0,-6,4.6,0.72
Cc1cccc(Cn2cc(C=O)c3ccccc32)c1,i,-1.5,-13,-3,4.2,-5,-1.5,-1,0.8,0.67
O=[N+]([O-])c1ccc(CNCCc2ccccc2)cc1,i,0.2,-16,-17,-6.4,59*,0.6,1,1.4,0.67
O=C1C(=Cc2ccccc2)N2CCC1CC2,i,-2.3,6,12,-2.9,nt,nt,nt,2.6,0.66
C=CCn1c(O)c(C(C)=NCCc2ccccc2)c(=O)[nH]c1=O,nt,nt,nt,nt,nt,7,0.0,-1,4.4,0.69
CCCC[n+]1cc(/N=C(\[O-])OC)on1,nt,nt,nt,nt,nt,-4,2.1,-5,-1.3,0.68

Next compounds
molecule,FGF22 binding,AF4-AF9 inh,Ecoli rRNA inh,Ecoli rRNA inh OD600,Ecoli rRNA inh RFP,T cruzi repl,Bfl-1 A1 inh,Beta apoptosis,UCH37 DUB inh,Ecoli growth
CN1CCC(OC(=O)c2cccc(F)c2)CC1,i,-2.5,16,6,6.0,58*,0.5,-4,1.2,0.68
COc1ccc(-c2ccc(OC)c(OC)c2OC)cc1,i,-1.8,nt,nt,nt,nt,nt,nt,0.6,0.65
CCCCN1C(=O)/C(=C/C=C/c2ccco2)C(=O)NC1=S,nt,-7.7,9,22,26,-17,nt,nt,5.6,0.69
O=[N+]([O-])c1ccc(N2CCNCC2)cc1N1CCCCCC1,i,10,-2,-5,2.1,7,0.3,-6,12,0.61
O=C(O)COc1ccc(Cl)cc1Cl,i,-5.3,3,2,-8.6,-10,0.3,-6,4.3,0.7
C/C(=N\NP(=S)(c1ccccc1)c1ccccc1)c1ccc(O)cc1O,i,5.9,-34,-28,-0.8,-8,0.9,-1,nt,nt
COc1cc(Br)cc(CN2CCN(C)CC2)c1O,i,-2.7,17,5,-1.5,nt,-1.1,-6,0.3,0.64
CCC(=NCCN1CCOCC1)c1c(O)n(-c2ccccc2C)c(=O)[nH]c1=O,nt,nt,nt,nt,nt,6,-0.6,-2,2.1,0.71
C=C1[C@@H](C)[C@H]2[C@H](Cc3ccccc3)NC(=O)[C@]23OC(=O)/C=C/[C@H](O)CCC[C@@H](C)C/C=C/[C@H]3[C@@H]1O,i,1.0&-2.4,nt,nt,nt,-1,0.5,-11,nt,nt
CC(=O)OC[C@]12CCC(C)=C[C@H]1O[C@@H]1[C@H](O)[C@@H](OC(C)=O)[C@@]2(C)[C@]12CO2,i,-0.8,14,10,9.1,nt,-0.3,nt,0.3,0.78
C=CCn1c(O)c(/C=C/C=Nc2ccccc2)c(=O)[nH]c1=O,nt,nt,nt,nt,nt,-4,-0.2,2,8.4,0.63
CC(C)n1cc(C(=O)N(CC(=O)NC(C)(C)C)Cc2ccccc2)cn1,nt,nt,nt,nt,nt,13,0.0,-2,1.4,0.73

The list continues:
molecule,FGF22 binding,AF4-AF9 inh,Ecoli rRNA inh,Ecoli rRNA inh OD600,Ecoli rRNA inh RFP,T cruzi repl,Bfl-1 A1 inh,Beta apoptosis,UCH37 DUB inh,Ecoli growth
c1coc(CNCCc2c[nH]c3ccccc23)c1,i,3.8,26,17,6.3,6,-1.9,0,0.2,0.67
c1ccc(CCCN2CCN(CCOC(c3ccccc3)c3ccccc3)CC2)cc1,i,25,nt,nt,nt,33,-0.3,14,1.9,0.61
CCN(C(=O)CN1CC=C(c2ccccc2)CC1)c1c(N)n(Cc2ccccc2)c(=O)[nH]c1=O,i,1.4,17,9,0.3,-14,-0.3,-4,1.2,0.66
COC(=O)C1=C(c2cc3ccccc3o2)C[C@@H]2CC[C@H]1N2C(=O)NCc1cccc2ccccc12,nt,nt,nt,nt,nt,28,0.2,-7,-0.1,nt
OC[C@@H](O)CCl,nt,nt,nt,nt,nt,-10,-0.3,5,-1.5,nt
COC(=O)C1=C(c2ccc(F)cc2F)C[C@@H]2CC[C@H]1N2C(=O)NCCOc1ccc(OC)cc1,nt,nt,nt,nt,nt,nt,-0.4,-1,1.8,0.69
CC1CCCN(CC(=O)c2ccc(Cl)c(Cl)c2)C1 (stereo unspecified),i,1.1,8,11,1.7,-24,1.8,1,2.8,0.69
COc1ccc(Oc2nc3ccccc3n(C)c2=O)cc1,nt,nt,6,2,-2.3,-2,0.0,-2,2.8,0.69
CCN(c1ccc(C(O)(C(=O)OC)C(F)(F)F)cc1)S(=O)(=O)c1ccc(C)cc1 (stereo unspecified),nt,nt,nt,nt,nt,-2,0.5,-6,2.7,0.69
CCC(=O)OC(Cc1ccccc1)(c1ccccc1)[C@H](C)CN(C)C (stereo partly specified),i,nt,5,5,-1.8,nt,nt,nt,-0.8,0.69
Cc1cc(-c2ccccc2)cc(-c2ccccc2)[n+]1CCc1ccccc1,i,0.9,-57,-80,-36,59*,-1.2,133*,2.0,0.67
CN(C)c1ccc(C=C2C(=O)NC(=S)NC2=O)cc1[N+](=O)[O-],i,-2.6,10,-5,0.8,nt,0.3,-2,nt,nt
